Rango-impB inh = qHTS Assay for Inhibitors of Rango (Ran-regulated importin-beta cargo) - Importin beta complex formation; Importin subunit beta-1 (Homo sapiens), Q14974; Rango CFP/YFP FRET sensor + importin beta, 45 min; Potency, µM (doses to about 92.2 µM), for inactives: top-dose inhibition of complex formation; 340,000 tested, 0.031% active; AID 540263, 2011; active = rising FRET ratio curve, often small or poorly fitted; inconclusive = mostly compound fluorescence or quenching in the first reads; inactive = flat curves in all reads;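 note: potency is the fitted concentration of half-maximal effect; 0% = DMSO wells and 100% = buffer wells lacking importin beta; nearly all actives have a fitted effect of over 15% in size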
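FRET biosensor (snurportin 1 IBB flanked by EYFP and cerulean), 50 nM, with compound 5 min, then 0.125 microM importin beta in PBS, 1 mM DTT, 0.02% Tween-20, 0.1% BSA. CFP/YFP ratio read after 45 min at room temperature; pre-read flags interference.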
Rango dissoc inh = qHTS Assay for Inhibitors of RanGTP induced Rango (Ran-regulated importin-beta cargo) - Importin beta complex dissociation; 340,000 tested, 0.071% active; Snurportin-1 (Homo sapiens) + GTP-binding nuclear protein Ran (Homo sapiens) + Importin …; AID 540253, 2011; Potency, µM (series often up to 46.1 µM), without a hit: top-dose activity change, negative = inhibition; Biochemical FRET Rango-importin beta, RanGTP-induced dissociation; active means falling FRET ratio curve, often poorly fitted, with flat reads before Ran was added; inconclusive means other falling curves, or compound fluorescence or quenching; inactive means flat or rising ratio curve;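 note: potency is the fitted concentration of half-maximal effect; % of control where 0% means no effect; nearly all actives have a fitted effect of over 45% in size; -100% = wells without RanGTP and RCC1; the record marks most hits as doubtful in a second field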
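Rango FRET biosensor (snurportin-1 IBB flanked by N-terminal EYFP and C-terminal CFP10) at 0.1 uM, with 0.25 uM importin beta in PBS, 1mM DTT, 0.02% Tween-20, 0.1% BSA. 0.6 uM Ran, 2mM GTP and 0.2 uM RCC1 were then added for 45 min at room temperature. Inhibition read as loss of FRET rise.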
GLA inh pH 4.5 = qHTS Assay for Inhibitors of Human alpha-Galactosidase at pH 4.5 | Alpha-galactosidase A (Homo sapiens), P06280 | purified enzyme, 4-MU-alpha-Gal fluorescence, pH 4.5 | activity change, negative = inhibition, % at 105 µM | 230,000 tested, under 10 active; inconclusive = small, poorly fitted or top-dose-only inhibition, or a rising curve; inactive = flat fitted curve, though single readings scatter; no compound was filed as active;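 note: 0% = full activity with enzyme and -100% = basal without enzyme; dose as in the result columns while the protocol names 77 µM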
Target sequence (P06280 whole entry, looked up): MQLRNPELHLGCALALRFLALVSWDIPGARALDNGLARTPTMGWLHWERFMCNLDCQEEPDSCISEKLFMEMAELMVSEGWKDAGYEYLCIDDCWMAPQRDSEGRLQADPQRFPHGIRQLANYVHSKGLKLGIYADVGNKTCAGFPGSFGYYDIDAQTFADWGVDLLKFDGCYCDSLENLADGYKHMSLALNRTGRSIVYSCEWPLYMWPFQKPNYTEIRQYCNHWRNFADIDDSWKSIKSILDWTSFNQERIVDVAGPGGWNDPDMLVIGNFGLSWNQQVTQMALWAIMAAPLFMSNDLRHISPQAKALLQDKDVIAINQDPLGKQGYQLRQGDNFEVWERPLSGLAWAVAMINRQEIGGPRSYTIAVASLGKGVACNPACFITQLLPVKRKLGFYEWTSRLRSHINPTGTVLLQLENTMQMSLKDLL
miR-21 reporter = qHTS Assay for Modulators of miRNAs and/orActivators of miR-21 | HeLa miR-21 FLuc reporter, luciferase, 48 h | 340,000 tested, under 10 active | Potency, µM (titrated, usually from 38.3 µM), inactives show at the highest dose reporter change, positive = more light; active = well fitted rising curve with a large enough effect; inconclusive = small, poorly fitted or top-dose-only effect; inactive = no such curve, though single readings can be large or run the other way;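 note: % of control where 0% means no effect; miR-21 action dims this reporter so a rising signal means less miR-21 action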
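Using DMEM plus 10% FBS, HeLa miR-21-FLuc cells are incubated with test compounds (final up to about 40uM) for 48 hours; firefly luciferase signal is then imaged following reagent-mediated lysis.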
* hit, by the source's call.

CNC(=O)/C(C#N)=C/c1ccc(-c2ccc(OC)cc2[N+](=O)[O-])o1 was read as Rango-impB inh 0.2%, Rango dissoc inh 0.0%, GLA inh pH 4.5 4.6 and miR-21 reporter -77.3%.
For CCOc1ccc2nc(NC(=O)CN3CCN(c4ccccn4)CC3)sc2c1 the results were Rango-impB inh -1.6%, Rango dissoc inh 5.8%, GLA inh pH 4.5 -18.8 and miR-21 reporter -18.7%.
For CCOC(=O)N1CCC(NC(=O)c2sc3nc4n(c(=O)c3c2C)CCCC4)CC1 the results were Rango-impB inh 3.3%, Rango dissoc inh -11.3%, GLA inh pH 4.5 10.1 and miR-21 reporter -2.9%.
Screening CCOc1ccccc1OCC(=O)Nc1ccc2[nH]c(=O)[nH]c2c1 returned Rango-impB inh 3.8% and Rango dissoc inh 6.4%.
COCCn1c(C)cc(C(=O)CSc2cc(C)c3ccc(OC)cc3n2)c1C was read as Rango-impB inh 4.6%, Rango dissoc inh 1.3%, GLA inh pH 4.5 2.9 and miR-21 reporter -2.6%.
`COc1cc(C2C(C(=O)c3ccco3)=C(O)C(=O)N2Cc2ccccc2)ccc1O` (stereo not given) gave Rango-impB inh -0.2%, Rango dissoc inh -26.7% and miR-21 reporter -10.3%.
Screening CCOC(=O)c1ccc(NC(=O)C2CCN(S(=O)(=O)c3ccccc3)CC2)cc1 returned Rango-impB inh -2.0% and Rango dissoc inh -3.5%.
O=C1CC2CS(=O)(=O)CC2N1C1CCCCC1 (stereo not given) was read as Rango-impB inh 4.4%, Rango dissoc inh 2.2%, GLA inh pH 4.5 1.2 and miR-21 reporter -3.0%.
For CCOC(=O)C1CCCN(C(=O)COc2ccc(S(=O)(=O)N3CCOCC3)cc2)C1 (stereo not given) the results were Rango-impB inh 1.9% and Rango dissoc inh 15.6%.
Screening CC1CCCCN1C(=O)c1cc2ccccc2cc1O (stereo not given) returned Rango-impB inh 0.6%, Rango dissoc inh 22.7% and miR-21 reporter 1.2%.
For Nc1ccc2c(c1)C(=O)N(CC1CCCO1)C2=O (stereo not given) the results were Rango-impB inh inconclusive, Rango dissoc inh inconclusive, GLA inh pH 4.5 -5.2 and miR-21 reporter -9.1%.
Cc1cccc(C(=O)NCC(=O)OCC(=O)NCCNC(=O)COC(=O)CNC(=O)c2cccc(C)c2)c1 was read as Rango-impB inh -3.8% and Rango dissoc inh -7.8%.
Cc1c(NC(=O)CN(C)CC(=O)Nc2ccc(F)c(F)c2F)c(=O)n(-c2ccccc2)n1C was read as Rango-impB inh -0.4% and Rango dissoc inh 1.7%.
For CC1CCCN(c2ccc(C(=O)NCc3ccco3)cc2[N+](=O)[O-])C1 (stereo not given) the results were Rango-impB inh 3.8%, Rango dissoc inh 4.2%, GLA inh pH 4.5 -5.5 and miR-21 reporter -24.7%.
For COc1cc(NC(=O)Cc2ccccc2)nc(OC)n1 the results were Rango-impB inh 2.7%, Rango dissoc inh 9.0% and miR-21 reporter -14.4%.
Screening CCCN=C(C)c1c(-c2ccccc2)[nH]n(-c2nc3ccccc3s2)c1=O returned Rango-impB inh -0.5%, Rango dissoc inh 9.7%, GLA inh pH 4.5 -7.9 and miR-21 reporter -9.6%.
Screening CCC1CCCCN1C(=S)Nc1ccc(S(=O)(=O)Nc2ncccn2)cc1 (stereo not given) returned Rango-impB inh 6.0%, Rango dissoc inh 0.6% and miR-21 reporter -3.8%.
`CCOC(=O)c1c(NC(=O)CN2CCCCC2)sc2c1CCC(C=O)=C2Cl` gave Rango-impB inh -5.0%, Rango dissoc inh -17.4%, GLA inh pH 4.5 -1.0 and miR-21 reporter -10.5%.
`O=C(NCC1CCCO1)C(=O)NCC(c1ccco1)N1CCN(c2ccccc2F)CC1` (stereo not given) gave Rango-impB inh inconclusive, Rango dissoc inh 2.3%, GLA inh pH 4.5 2.2 and miR-21 reporter -15.0%.
For CN(C)S(=O)(=O)c1ccc(C(=O)Nc2ccccn2)cc1 the results were Rango-impB inh -1.0%, Rango dissoc inh 2.5%, GLA inh pH 4.5 8.2 and miR-21 reporter -29.7%.
Screening O=C(NCCc1ccccc1)C(=O)NCC1OCCN1S(=O)(=O)c1ccc(Cl)cc1 (stereo not given) returned Rango-impB inh 4.2%, Rango dissoc inh 0.2%, GLA inh pH 4.5 3.8 and miR-21 reporter 15.3%.
Screening O=C(Nc1nccs1)c1cncc(Br)c1 returned Rango-impB inh 2.6%, Rango dissoc inh -4.8%, GLA inh pH 4.5 -4.6 and miR-21 reporter -17.1%.
CCCCN(CC)C(=O)Cn1cnc2sc(C)c(S(=O)(=O)N3CCC(C)CC3)c2c1=O was read as Rango-impB inh 0.2%, Rango dissoc inh 6.3% and miR-21 reporter -1.9%.
CCCCn1c(N)c(N(CC(C)C)C(=O)c2ccc(Br)o2)c(=O)[nH]c1=O was read as Rango-impB inh -3.5% and Rango dissoc inh -11.9%.
Cc1ccc(C)c(NC(=O)CN(C)C(=O)c2ccc3ncsc3c2)c1 was read as Rango-impB inh 0.0% and Rango dissoc inh 27.0%.
Screening CCC(=O)NC1(C(F)(F)F)C(=O)Nc2c1c(=O)[nH]c(=O)n2CC(C)C (stereo not given) returned Rango-impB inh -1.4%, Rango dissoc inh 0.9%, GLA inh pH 4.5 6.4 and miR-21 reporter -1.9%.
Screening COc1ccc(CCN=C(N)NS(=O)(=O)c2ccc(OC)cc2)cc1 returned Rango-impB inh -2.1%, Rango dissoc inh 9.2%, GLA inh pH 4.5 4.1 and miR-21 reporter -0.1%.
For Cc1noc(C)c1CSc1nc2sc(C)c(C)c2c(=O)n1C1CCCC1 the results were Rango-impB inh -4.3%, Rango dissoc inh -3.3%, GLA inh pH 4.5 -3.1 and miR-21 reporter -9.1%.
`O=C(O)C1CC(=O)N(c2ccc(F)c(F)c2)C1` (stereo not given) gave Rango-impB inh 3.2%, Rango dissoc inh -11.4%, GLA inh pH 4.5 -0.7 and miR-21 reporter 1.3%.
`c1ccc(COC2CCCN(Cc3nc(-c4cnccn4)no3)C2)cc1` (stereo not given) gave Rango-impB inh -1.0%, Rango dissoc inh -4.7%, GLA inh pH 4.5 2.8 and miR-21 reporter -6.1%.
COc1ccc(-c2csc3nc(C(C)C)oc(=O)c23)cc1OC was read as Rango-impB inh 1.3%, Rango dissoc inh 11.3%, GLA inh pH 4.5 0.4 and miR-21 reporter -2.0%.
O=C(NC(=S)Nc1cccc2c(O)cccc12)c1ccccc1[N+](=O)[O-] was read as Rango-impB inh -0.3%, Rango dissoc inh 7.3% and miR-21 reporter -10.7%.
For COc1cc(NC(=O)c2[nH]c(C)c(C(C)=O)c2C)cc(OC)c1OC the results were Rango-impB inh 1.3%, Rango dissoc inh -4.2% and miR-21 reporter 5.1%.
O=C(O)CSc1nnnn1C1CCCCC1 was read as Rango-impB inh -2.6%, Rango dissoc inh inconclusive, GLA inh pH 4.5 -6.3 and miR-21 reporter -0.5%.
`Cc1nn(-c2ccccc2)c2nc(N)c(C(N)=O)cc12` gave Rango-impB inh -1.1%, Rango dissoc inh 1.5% and miR-21 reporter -22.1%.
Clc1ccccc1CN1CCSCC1 was read as Rango-impB inh 4.7%, Rango dissoc inh inconclusive and miR-21 reporter 0.4%.
For Cn1c(=O)oc2cc(S(=O)(=O)Nc3ccc4c(c3)OCO4)ccc21 the results were Rango-impB inh -0.8%, Rango dissoc inh 0.8%, GLA inh pH 4.5 0.9 and miR-21 reporter -11.7%.
Screening CCCc1cc2c(=O)c(-c3cscn3)c(C(=O)OCC)oc2cc1O returned Rango-impB inh 0.0%, Rango dissoc inh -6.0%, GLA inh pH 4.5 2.1 and miR-21 reporter -9.4%.
Screening Cn1cccc1C(=O)N/N=C/c1c(Cl)cccc1Cl returned Rango-impB inh 1.5%, Rango dissoc inh 2.4% and miR-21 reporter -75.9%.
For CC(=O)NC1=NN(C(C)=O)C(C)(c2ccc3ccccc3c2)S1 (stereo not given) the results were Rango-impB inh 2.9%, Rango dissoc inh -10.9%, GLA inh pH 4.5 3.7 and miR-21 reporter -13.4%.
For Cc1cc(=O)n2[nH]c(SCc3ccccc3Cl)nc2n1 the results were Rango-impB inh 5.3%, Rango dissoc inh 8.2% and miR-21 reporter -9.0%.
Screening CCOC(=O)CSC1=NC(=O)/C(=C/c2ccc(OC)cc2)S1 returned Rango-impB inh inconclusive, Rango dissoc inh -25.5%, GLA inh pH 4.5 -9.8 and miR-21 reporter -19.6%.
`c1ccc(-c2nc3ccccn3c2NCc2ccc3c(c2)OCO3)cc1` gave Rango-impB inh 1.1%, Rango dissoc inh -18.4%, GLA inh pH 4.5 -27.8 and miR-21 reporter -17.7%.
COc1ccccc1OCc1nnc(SCC(=O)Nc2ccc(C)cc2)n1C was read as Rango-impB inh -1.7%, Rango dissoc inh 2.8%, GLA inh pH 4.5 -6.9 and miR-21 reporter 0.1%.
CC(C)C(=O)Nc1ccc2c3c(cccc13)CC2 was read as Rango-impB inh -2.0%, Rango dissoc inh -17.5% and miR-21 reporter -0.7%.
For Cc1ccc2nc3c(cc(C#N)c(=O)n3CC3CCCO3)c(=O)n2c1 (stereo not given) the results were GLA inh pH 4.5 inconclusive and miR-21 reporter 0.8%.
Cc1cc2oc(C(=O)Nc3ccc(S(N)(=O)=O)cc3)c(C)c2cc1Cl was read as Rango-impB inh -2.4%, Rango dissoc inh 3.1%, GLA inh pH 4.5 6.0 and miR-21 reporter 0.9%.
`Cc1ccc2oc(-c3cccc(N)c3)nc2c1` gave Rango-impB inh 6.2%, Rango dissoc inh 3.9%, GLA inh pH 4.5 -1.6 and miR-21 reporter -15.0%.
For CCOC(=O)c1nnn(-c2nonc2N)c1-c1ccc(F)cc1 the results were Rango-impB inh 0.2%, Rango dissoc inh -13.0%, GLA inh pH 4.5 -2.5 and miR-21 reporter -1.7%.
COc1cc(C(=O)NC(=S)Nc2ccc(Cl)c(C(=O)O)c2)cc(OC)c1OC was read as Rango-impB inh 0.6%, Rango dissoc inh inconclusive, GLA inh pH 4.5 -2.8 and miR-21 reporter -2.7%.
CCCSc1nsc(NC(=O)C(c2ccccc2)c2ccccc2)n1 was read as Rango-impB inh -3.0%, Rango dissoc inh 3.7%, GLA inh pH 4.5 -5.7 and miR-21 reporter inconclusive.
CCNS(=O)(=O)c1ccc(NC(=O)c2ccccc2)cc1 was read as Rango-impB inh -0.9%, Rango dissoc inh 1.0%, GLA inh pH 4.5 0.2 and miR-21 reporter -17.5%.
`CC(=O)[C@@H]1[C@@H](C(=O)c2ccccc2)[C@]2(C(=O)Nc3ccccc32)[C@H]2C=Cc3cc(F)ccc3N12` gave Rango-impB inh inconclusive, Rango dissoc inh -26.0%, GLA inh pH 4.5 -1.0 and miR-21 reporter -28.3%.
`COc1ccc(NC(=O)c2cc3cc(OC)ccc3oc2=N)cc1` gave Rango-impB inh -5.6%, Rango dissoc inh -25.0%, GLA inh pH 4.5 4.9 and miR-21 reporter -6.6%.
Screening CC[n+]1c(/C=C2/C=C(C)CC(C)(C)C2)sc2ccc(OC)cc21 returned Rango-impB inh inconclusive, Rango dissoc inh inconclusive, GLA inh pH 4.5 -14.6 and miR-21 reporter 24.1%.
For CS(=O)(=O)N(CC(=O)Nc1ccccc1Sc1ccccc1)c1ccc(F)cc1 the results were Rango-impB inh -3.6%, Rango dissoc inh inconclusive, GLA inh pH 4.5 3.3 and miR-21 reporter 10.1%.
For O=C(Nc1ccc(OC(F)F)c(Cl)c1)Nc1ccc2c(c1)OCO2 the results were Rango-impB inh -0.6%, Rango dissoc inh 0.2%, GLA inh pH 4.5 5.1 and miR-21 reporter 2.5%.
For COc1cc(/C=N/NC(=O)C(=O)N2CCCCCC2)ccc1O the results were Rango-impB inh 2.0%, Rango dissoc inh 11.9% and miR-21 reporter 2.6%.

Not all compounds are listed; rates above refer to the full screens.
